Screening data: PubChem, several laboratories
RecA splice inh = Mtb RecA intein splicing inhibitors, primary screen, biochemical, fluorescence, HTS | Protein RecA (Mycobacterium tuberculosis (strain ATCC 25618 / H37Rv)), P9WHJ3 | cell-free RecA intein splicing | inhibition, %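 (about 9 µM by stock and volumes)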 | hit rate 0.75% among 290,000; in the data active = inhibition above about 30%;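 note: 0% = vehicle wells and 100% = reference inhibitor control wells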
Target sequence (P9WHJ3 whole entry, looked up, canonical isoform): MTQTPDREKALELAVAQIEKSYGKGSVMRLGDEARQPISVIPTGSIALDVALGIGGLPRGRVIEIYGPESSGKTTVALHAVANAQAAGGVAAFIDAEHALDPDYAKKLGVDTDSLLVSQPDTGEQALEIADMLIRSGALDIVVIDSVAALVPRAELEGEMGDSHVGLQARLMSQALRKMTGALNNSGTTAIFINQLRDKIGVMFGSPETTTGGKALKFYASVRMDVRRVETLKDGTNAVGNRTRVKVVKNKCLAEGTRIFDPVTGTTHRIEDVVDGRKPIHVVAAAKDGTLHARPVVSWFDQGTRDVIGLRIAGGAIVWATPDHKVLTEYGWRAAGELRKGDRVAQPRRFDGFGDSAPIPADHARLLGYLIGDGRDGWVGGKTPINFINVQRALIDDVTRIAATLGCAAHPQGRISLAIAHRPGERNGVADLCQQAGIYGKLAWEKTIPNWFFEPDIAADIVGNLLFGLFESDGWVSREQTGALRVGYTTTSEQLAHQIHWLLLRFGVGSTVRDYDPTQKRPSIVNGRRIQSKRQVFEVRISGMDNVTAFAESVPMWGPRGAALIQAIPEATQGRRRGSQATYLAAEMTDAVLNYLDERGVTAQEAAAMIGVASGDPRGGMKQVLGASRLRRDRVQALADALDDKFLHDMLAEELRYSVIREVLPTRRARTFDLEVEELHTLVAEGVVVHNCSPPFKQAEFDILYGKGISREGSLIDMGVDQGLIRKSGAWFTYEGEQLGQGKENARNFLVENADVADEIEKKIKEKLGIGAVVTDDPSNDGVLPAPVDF
Mtb betalactam = beta-lactam sensitization of Mtb H37Rv, H37Rv; AID 434955, 2010; hit rate 0.27% among 330,000; inhibition, % at 25 µM; M. tuberculosis H37Rv growth with meropenem, percent inhibition; hits of this screen are not shown here;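 active = about 74% or more and at least 40 points above the plate without the antibiotic, then above 30% in a dose series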;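 note: growth measured after seven days incubation then overnight dye step; 0% = bacteria only wells and 100% = bacteria with antibiotic; twin plates without the antibiotic show which effects depend on it; some results filed as inactive read as strong as hits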
YopH inh = YopH tyrosine phosphatase inhibitors, primary screen, biochemical, fluorescence Ex485/Em525; YopH tyrosine phosphatase [Yersinia enterocolitica]; inhibition, %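 (about 10 µM by stock and volumes)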; hit rate 0.16% among 140,000; AID 898, 2007;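 active = inhibition of 50% or more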;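 note: controls were vehicle for no effect and minimum signal wells for full effect; inactives centre near -20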
Mtb growth = M. tuberculosis H37Rv growth inhibitors, H37Rv strain (AID 1626) | M. tuberculosis H37Rv growth inhibition; higher % means a stronger effect | hit rate 0.95% among 220,000 | inhibition, % at 10 µM, or IC50 in µM where a hit was titrated;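 active = confirmed in a dose series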;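 note: bacteria incubated seven days before Alamar blue readout; 0% = bacteria only wells and 100% = bacteria with antibiotic wells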
Arbovirus inh = antivirals against arbovirus infection, primary screen, cell-based, full library, 10K replicate subset; arbovirus infection cell-based antiviral screen; hit rate 0.37% among 200,000; inhibition, % at 10 µM;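 active = inhibition from about 30%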;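 note: bluetongue infection of BSR cells; cell survival read as ATP light after 72 h; 0% = infected wells without compound and 100% = uninfected wells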
Arbovirus inh repeat = second read-out of Arbovirus inh, no call of its own (marks repeat the call); inhibition, %; measured here: 10K subset replicate screen; many hits read low in the repeat;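 first of two repeat runs on a subset; 0% = infected and 100% = uninfected wells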
Numbers without * were called inactive; i = inactive; nt = not tested or not shown; & = joins results of further samples. Only part of the results is shown; count on the stated rates, not on these rows.

SMILES	RecA splice inh	Mtb betalactam	YopH inh	Mtb growth	Arbovirus inh	others
COc1cc2c(cc1OC)-c1cc(Nc3ccc(F)cc3)nc(=O)n1CC2	-2.0	-2	nt	nt	nt
Cc1cc(C(=O)NCc2ccco2)on1	-0.2	-12	-18	-2%	5
O=C(CCN1C(=O)c2cccc([N+](=O)[O-])c2C1=O)Nc1nccs1	5.4	-2	nt	-1%	1
Cc1cc(OCC(=O)Nc2ccc(N3CCCC3)cc2)cc(C)c1Cl	3.2	3	-11	9%	-5
Cc1nc(NC(=O)/C=C/c2ccccc2)sc1C(=O)Nc1cccc(Cl)c1	0.4	3	0	-3%	7
O=C(COc1ccc(Cl)cc1)NCCSCc1cccc(Cl)c1	19	-1	-26	0%	25
COc1ccc(CC(=O)NCC2(N3CCCCC3)CCCCC2)cc1	-1.9	4	nt	-2%	5
O=C(NCC1CCCO1)C1CCN(C2CCN(CCCC3CCCC3)CC2)CC1 (stereo unspecified)	0.4	4	nt	-5%	-32
O=Cc1ccc(OCCN2CCCC2=O)cc1	-3.6	44	nt	nt	nt
Cc1onc(-c2ccccc2)c1C(=O)N/N=C/c1cc2c(cc1Br)OCO2	0.9	7	-20	1%	-6
CC(C(=O)O)c1ccc(-c2ccccc2)c(F)c1 (stereo unspecified)	-1.5&2.2	-7&-1	-33	-7%	-5
Cc1cccc(N=C2NN=C(c3ccc4c(c3)OCCO4)CS2)c1	1.5	51	-16	7%	-14
Cc1cccc(Nc2nnc(SCC(=O)NCc3cccs3)s2)c1	-3.1	2	nt	26%	-6
CCNc1nc(NCC)n2c(SCC(=O)N3CC4(C)CC3CC(C)(C)C4)nnc2n1 (stereo unspecified)	1.7	6	-24	-7%	2
CC(C)(C)c1ccc(OCCOCCn2cnc3ccccc3c2=O)cc1	4.2	12	nt	2%	8
CC1(C)CC(=O)C=C(Nc2ccc3c(c2)OCCO3)C1	-0.5	-14	-42	-5%	3
Cc1cc2nc3c(nc2cc1C)C1(C(=O)N(C)C)CCC3(C)C1(C)C (stereo unspecified)	-1.3	2	-9	-6%	-3
COc1cccc(/C=C2\SC(=O)N(CCC(=O)N3CCCCC3CCO)C2=O)c1 (stereo unspecified)	1.0	1	nt	nt	nt
Cc1ccc2c(-c3ccc([N+](=O)[O-])cc3)cc(=O)[nH]c2c1	2.9	5	nt	-5%	nt
CC(NC(=O)COC(=O)CC(c1ccccc1)c1ccccc1)c1ccccc1 (stereo unspecified)	5.5	-3	-12	-1%	6
CC(=O)c1ccc(NC(=O)NC2CCCc3ccccc32)cc1 (stereo unspecified)	3.5	-10	nt	nt	nt
Cc1ncc([N+](=O)[O-])n1CC(=O)Nc1ccc(Br)cc1	1.1	5	nt	nt	nt
COc1cccc(C(=O)NNC(=O)CCc2ccccc2)c1	1.5	-3	nt	6%	3
O=S(=O)(NCCc1csc(-c2cccnc2)n1)c1cccs1	0.5	-12	-18	8%	13	Arbovirus inh repeat=4
CC(C)CN(C(=O)CSc1nc(-c2ccccc2)cn1N)c1c(N)n(Cc2ccccc2)c(=O)[nH]c1=O	-2.6	0	nt	nt	nt
Cc1nnc(NC(=O)CSc2ncnc3scc(-c4ccccc4)c23)s1	-3.0	-8	-22	-6%	-4
O=C(NNc1cccc(Cl)n1)Nc1ccccc1F	-2.5	6	nt	-1%	-1
Cc1ccc(CNC(C)c2ccccc2)cc1 (stereo unspecified)	-2.1	-4	-29	-2%	-2
COC(=O)c1cn(Cc2ccc(C(F)(F)F)cc2)cc(F)c1=O	1.6	-3	nt	-3%	nt
C#CCCCCCCC#CCN(C)C	2.1	3	-17	-2%	2
CC(=O)Nc1ccc2nsnc2c1	-6.4	-14	nt	-5%	nt
CC1Cc2ccccc2N1C(=O)COC(=O)CNC(=O)c1ccc(Br)o1 (stereo unspecified)	0.9	-6	-15	-11%	1
O=C(Nc1ccc(N2CCCCC2)cc1)C(Cl)c1ccccc1 (stereo unspecified)	nt	-2	nt	-2%	7
CCCCn1c(SCC(=O)NCc2ccco2)nc2cc(S(N)(=O)=O)ccc21	1.2	2	-15	-5%	-2
Cc1cc(NC(=O)CSc2nccn2-c2ccc([N+](=O)[O-])cc2)no1	-6.5	-3	nt	0%	8
COc1ccc(NCc2nnc(SCC(=O)NCc3ccco3)n2-c2ccccc2OC)cc1	2.5	-6	-9	-10%	14
O=C(O)c1ccccc1CSc1nnnn1-c1ccccc1	1.4	0	nt	nt	nt
C/C(CC(=O)Nc1ccc(N(C)C)cc1)=N\NC(=O)c1cnccn1	-3.5	72	-20	0%	-24
COc1ccc(CCC(=O)Nc2nc(C)c(C(=O)N(C)C)s2)cc1	-2.4	3	nt	nt	nt
CC(C)C(C)NC(=O)COc1ccc(S(=O)(=O)N2CCOCC2)cc1Cl (stereo unspecified)	-2.5	5	nt	7%	2
CCOc1ccc(C2=NNC(c3cccs3)=Nc3ccc(OCC)cc32)cc1	12	97	-11	nt	20
COC(=O)CSc1nc(N)c2c3c(sc2n1)C(c1ccccc1)SC(c1ccccc1)C3 (stereo unspecified)	36*	78	-40	14µM*	-38
CSc1nnc(C)c(=O)n1COC(=O)/C=C/c1ccccc1	-2.5	54	nt	10%	6
O=C(CCCOc1ccccc1)Nc1ccc(S(=O)(=O)N2CCOCC2)cc1	-0.4	2	-50	-6%	4
COC(=O)C1=C(O)/C(=C/c2cccc(OC)c2O)N=C1C	-1.5	-14	nt	-10%	nt
Cc1ccc(/C=C(\C#N)C(=O)NCCN2CCOCC2)cc1	0.9	-7	nt	12%	3
CCOc1ccc(CCNC(=O)COC(=O)c2cccnc2OCC)cc1OCC	-0.8	-4	-11	-2%	3
Oc1ccc(N2CCN(c3ncnc4sc(-c5ccccc5)cc34)CC2)cc1	-2.0	nt	nt	70%	-17
O=C(Cc1c(Cl)cccc1Cl)NC1=NCCS1	-2.3	3	nt	-2%	27
CCN(CC)S(=O)(=O)c1ccc(/C=C/C(=O)O)cc1	-1.4	-12	nt	-3%	10
Next section:
SMILES	RecA splice inh	Mtb betalactam	YopH inh	Mtb growth	Arbovirus inh	others
Cc1ccc(C2(C)NC(=O)N(CC(=O)NCc3cccs3)C2=O)cc1 (stereo unspecified)	-0.2	4	-30	-7%	0
Cc1nc2ncnn2c(C)c1CCC(=O)N1CCN(C(=O)c2ccco2)CC1	-1.7	-15	-15	-2%	11
CC1CCc2c(sc3nc(CN4CCOCC4)nc(N4CCc5ccccc5C4)c23)C1 (stereo unspecified)	11	42	-10	23%	0
COC(=O)c1c(NC(=O)CN2C(=O)C(=O)N(CC(C)C)C2=O)sc(C)c1C	2.3	-13	nt	nt	nt
CC12CC3(C)CC(C)(C1)CC(C(=O)NCc1cccnc1)(C2)C3	-5.0	7	nt	nt	nt
O=C(Nc1ccc(F)cc1)Nc1ccccc1N1CCCCC1	6.0	0	nt	-11%	nt
CSc1nc2ccc(NS(=O)(=O)c3c(Cl)cccc3Cl)cc2s1	13	18	-17	15%	20
CCOc1ccc(NC(=O)CN2C(=O)CSC2=O)cc1	nt	0	nt	-5%	1
O=C(C1CCC(CNS(=O)(=O)c2cccc3nsnc23)CC1)N1CCN(c2ccccn2)CC1 (stereo unspecified)	-0.9	-3	nt	-1%	-1
CC1CCCC(NC(=O)C2CC(=O)N(Cc3ccccc3)C2)C1C (stereo unspecified)	-0.5	-13	nt	nt	nt
COc1ccc(CCN(C)C2CC(=O)N(c3ccccc3)C2=O)cc1OC (stereo unspecified)	-7.0	-4	nt	0%	nt
O=C(O)CCSc1nnc(COc2cccc3ccccc23)n1-c1cccc(Cl)c1	6.7	-7	nt	0%	13
CC(C)C[C@@H]1NC(=O)[C@H](C(C)C)NC(=O)c2cc([N+](=O)[O-])cc(I)c2OCC[C@@H](C(N)=O)NC1=O	nt	6	-45	-19%	-6
COc1cc(/C=N/NC(=O)c2cccc(C)c2)ccc1OCC(=O)Nc1ccccc1	-2.3	30	nt	nt	nt
COc1cc(C2/C(=C(\O)c3ccc4c(c3)OCCO4)C(=O)C(=O)N2CCN2CCOCC2)cc(OC)c1OC (stereo unspecified)	-0.5	-3	nt	nt	nt
CNC(=O)Nc1ccccc1C(=O)Nc1ccccc1	1.1	-2	nt	-11%	nt
O=C(Nc1ccc(Nc2ccccc2)cc1)c1ccc(Br)cc1	-3.1	-2	nt	nt	nt
Cn1nnnc1SCC(=O)Nc1nc(-c2ccc(F)c(F)c2)cs1	3.4	90	nt	nt	nt
O=c1c2ccccc2[nH]c(=S)n1CCC1=CCCCC1	-1.4	16	-26	8%	-4
CCCCc1ccc(NC(=S)N2CCCC(CO)C2)cc1 (stereo unspecified)	-1.2	-2	-11	2%	5
COc1cc(NC(=O)CN2C(=O)NC(C)(CCC(C)C)C2=O)cc(OC)c1 (stereo unspecified)	0.4	-7	-46	-14%	8
CC(=NCc1ccco1)c1c(O)n(Cc2ccccc2)c(=O)[nH]c1=O	2.5	2	2	1%	9
O=C(O)c1ccccc1C(=O)Nc1ccc(Oc2cccc3ccccc23)cc1	10	nt	nt	3%	27
CC(Oc1ccccc1)C(=O)N1CCN(c2ccc(N3CCCCC3)nn2)CC1 (stereo unspecified)	-8.5	-15	nt	nt	nt
CCn1c(SC)nnc1-c1nnc(SC)n1CC	-2.6	-2	34	-20%	0
Cc1sc2c(=O)n3c(nc2c1C(=O)NCCCN1CCOCC1)CCCCC3	-0.2	-5	-13	3%	15
CCCCn1c(SCC(=O)Nc2cccc(C)n2)nnc1-c1ccco1	1.3	3	-22	-4%	5
CSc1nnc(-c2ccccc2)n1N	nt	nt	-34	-1%	-4
Cc1[nH]c(C)c(S(=O)(=O)Nc2ccc(OC(F)(F)F)cc2)c1C(=O)N1CCCCC1	-4.4	-7	nt	nt	nt
Cc1cccn2c(=O)c3cc(C(=O)NCc4ccc(F)cc4)c(=N)n(CC4CCCO4)c3nc12 (stereo unspecified)	i	7	nt	nt	nt
COc1cccc2cc(C(C)OC(=O)Nc3ccc(C)cc3)oc12 (stereo unspecified)	0.6	4	nt	8%	-1
CN(NC(=O)c1ccc(Cl)cc1Cl)C1=NS(=O)(=O)c2ccccc21	-5.9	-4	nt	-3%	3
COc1ccc(Cl)cc1N1Cc2ccccc2C1	7.3	-7	-13	-11%	-5
COc1cccc(-c2cc(C(=O)Nc3cc(C)n(Cc4ccc(Cl)cc4)n3)no2)c1	-0.4	-6	-45	-2%	-13
C/C(CC(=O)Nc1ccc(N(C)C)cc1)=N\NC(=O)C(=O)NCc1ccccc1	-8.3	1	nt	-1%	1
COc1ccccc1-c1nc(C#N)c(N2CC(C)CC(C)C2)o1 (stereo unspecified)	1.5	4	nt	1%	0
Cc1ccc(C2Cc3cc(O)c(O)cc3CN2)cc1 (stereo unspecified)	-6.5	0	nt	nt	nt
O=C1CC(N2CCN(Cc3ccccc3)CC2)C(=O)N1c1ccccc1 (stereo unspecified)	0.8	-16	-34	0%	5
Cc1ccc(-c2csc3ncn(-n4c(C)ccc4C)c(=O)c23)o1	10	-5	15	-17%	-6
Cn1nccc1C(=O)NC1CCCc2c1cnn2-c1ccc(F)cc1F (stereo unspecified)	4.3	-11	nt	nt	nt
COc1cc(/C=C/C(=O)OCC(=O)NC(=O)NC(C)C)cc(S(=O)(=O)N2CCc3ccccc32)c1OC	4.9	2	nt	3%	-1
Cc1cc(Nc2cnc3ccccc3n2)n(-c2ccccc2)n1	1.3	2	-25	9%	-9
Cc1cc(C)c2c(n1)nn1c(NCCN3CCOCC3)cc(C)nc21	-51	7	-28	-4%	9
